# Assay outcomes deposited in PubChem BioAssay by National Center for Advancing Translational Sciences (NCATS).
# VACV mCherry inh = inhibitors of vaccinia virus infection (mCherry reporter signal). Vaccinia virus mCherry reporter infection, fluorescence; about a quarter of the inactives have no number. Potency, µM (top dose mostly 36.5 µM), for the others: top-dose activity change, negative = inhibition, usual class: inhibitors. 0.63% of 310,000 active. AID 720579; active = well fitted inhibition curve with a large enough effect; inconclusive = small, poorly fitted or top-dose-only effect; inactive = no such curve, though single readings can be large or run the other way; tested in A549 cells; also: nearly all actives have a fitted effect of over 35% in size; inactives centre near -10
# Vaccinia Venus = inhibitors of vaccinia virus (Venus reporter); 0.46% of 330,000 active; Vaccinia virus Venus reporter expression, fluorescence; Potency, µM (highest dose often 36.5 µM), inactives show at the top dose activity change, negative = inhibition, usual class: inhibitors; active means well fitted inhibition curve with a large enough effect; inconclusive means small, poorly fitted or top-dose-only effect; inactive means no such curve, though single readings can be large or run the other way; tested in A549 cells; also: nearly all actives have a fitted effect of over 30% in size; inactives centre near -10
# An asterisk follows results filed as active; i = inactive; ? = inconclusive; / = no result given; [ ] = another dose, or the depositor's remark. % is scaled to controls: 0 for no effect and ±100 for the full control effect; potency is read from the fitted curve at half-maximal effect.
Compound	VACV mCherry inh	Vaccinia Venus
Cc1cc(C)n2c(NC3CCCCC3)c(-c3cccnc3)nc2n1	-13%	-4%
CC(C)OCCCNC(=O)CCCN1C(=O)CCn2nc(-c3cccn3C)cc21	-3%	-5%
CCCCSc1nnc(-c2ccc(C)cc2)c2ccccc12	?	-29%
COc1cc2c(cc1OC)C(c1ccc(N(C)C)cc1)CC(=O)N2 (stereo not drawn)	-11%	-1%
Cc1nc(CCNC(=O)Cc2ccccc2)cs1	/	-20%
Cc1ccc(NC2=NCC(Cc3ccc(Br)cc3)S2)cc1 (stereo not drawn)	-21%	-22%
O=C(NCC(=O)N1CCCCCCC1)c1ccc(Br)o1	-7%	-6%
CN(CC(=O)Nc1ccccc1C(F)(F)F)C(=O)COc1ccccc1Cc1ccccc1	-17%	-11%
CC(=O)c1cn(CCCCCCCn2cc(C(C)=O)c(=O)[nH]c2=O)c(=O)[nH]c1=O	-14%	-14%
COc1ccc(N(C(=O)c2snc(C(N)=O)c2N)C(C(=O)NC2CCCCC2)c2ccc(C)o2)c(OC)c1 (stereo not drawn)	-5%	2%
CCCCNC(=O)C1(C)CCN1C(=O)c1ccc2ccccc2n1 (stereo not drawn)	37%[activator]	4%
Cc1cc(C)cc(OCC(=O)Nc2ccc(-c3nc4ccccc4s3)cc2)c1	?	-24%
COc1ccccc1CNC(=O)CS(=O)(=O)Cc1nc(-c2ccccc2C)oc1C	-5%	0%
COc1ccc(-c2cc(-c3nnc(COC(=O)CC4CC5CCC4C5)o3)c3ccccc3n2)cc1OC (stereo not drawn)	-7%	-14%
O=C(CN1CCN(CC(=O)c2ccc(F)cc2)CC1)Nc1ccccc1Cl	/	4%
CN(Cc1ccccc1)C(=O)c1ccc(NC(=O)Cc2ccc(NC(=O)C3CCCN(C(=O)C4CCC4)C3)cc2)cc1 (stereo not drawn)	-16%	-22%

# Some of these compounds in order of molar mass, falling:
Compound	VACV mCherry inh	Vaccinia Venus
CN(Cc1ccccc1)C(=O)c1ccc(NC(=O)Cc2ccc(NC(=O)C3CCCN(C(=O)C4CCC4)C3)cc2)cc1 (stereo not drawn)	-16%	-22%
COc1ccc(N(C(=O)c2snc(C(N)=O)c2N)C(C(=O)NC2CCCCC2)c2ccc(C)o2)c(OC)c1 (stereo not drawn)	-5%	2%
COc1ccc(-c2cc(-c3nnc(COC(=O)CC4CC5CCC4C5)o3)c3ccccc3n2)cc1OC (stereo not drawn)	-7%	-14%
COc1ccccc1CNC(=O)CS(=O)(=O)Cc1nc(-c2ccccc2C)oc1C	-5%	0%
CC(=O)c1cn(CCCCCCCn2cc(C(C)=O)c(=O)[nH]c2=O)c(=O)[nH]c1=O	-14%	-14%

# (next part)
Compound	VACV mCherry inh	Vaccinia Venus
COc1ccc(-c2cc(C(=O)n3cnc4ccccc43)c3ccccc3n2)cc1	/	-9%
COc1nc(N(C)C)nc(N(C#N)S(=O)(=O)c2ccc(C)cc2)n1	i	-14%
Cc1cnc(C(=O)OCC(=O)Nc2cccc(S(=O)(=O)N3CCCCC3)c2)cn1	i	-8%
O=C(CCc1nnc(Cc2c[nH]c3ccccc23)o1)NC(C1CC1)C1CC1	-6%	-10%
Cc1ccccc1NC(=O)c1cnc2sc(N3CCCC3)nn2c1=O	-9%	-3%
Brc1ccc2nc(SCCOc3ccccc3)[nH]c2c1	-17%	-12%
COc1cccc(NC(=O)CCN2CCN(c3ccccc3)CC2)c1	-3%[7.34 µM]	-7%[7.34 µM]
CCOC(=O)c1cnc(-c2ccccc2)nc1-c1ccccc1	-4%	-16%
COc1ccc(OCCCC(=O)Nc2cccc([N+](=O)[O-])c2C)cc1	-9%	9%
Cc1csc2ncc(C(=O)N(Cc3ccccc3)c3ccccn3)c(=O)n12	-8%	2%
O=C(C1CCC1)N1CCc2cc(S(=O)(=O)N3CCN(c4ccccn4)CC3)ccc21	-4%	-24%
O=C(NCCc1ccccc1)c1ccccc1NC(=O)C1CC=CCC1C(=O)O (stereo not drawn)	i	-10%
CC(=O)Nc1ccc(S(=O)(=O)NC(C)C(=O)OCC(=O)Nc2ccc(F)cc2Cl)cc1 (stereo not drawn)	?	?
CCC(=O)Oc1ccc2c(=O)c(-c3ccc4ccccc4n3)c(CC)oc2c1C	-14%	-5%
Cc1ccc(S(=O)(=O)/N=C2\C=C(Nc3cccc(C(=O)O)c3)C(=O)c3ccccc32)c(C)c1	-13%	-24%
N#Cc1c2c(c(NCCN3CCOCC3)n3c1nc1ccccc13)CCCC2	-8%	-11%
COc1ccc(-c2cc(C#N)nc(Cl)n2)cc1	?	?
COc1ccccc1NC(=S)N(CCc1c(C)[nH]c2ccccc12)Cc1cccs1	?	?
Nc1cc(C(=O)OCC(=O)NCCCc2ccccc2)ccc1Cl	-12%	-15%
CO[C@H]1C[C@@H]2CC[C@@H](C)[C@@](O)(O2)C(=O)C(=O)N2CCCC[C@H]2C(=O)O[C@H]([C@H](C)C[C@@H]2CC[C@@H](O)[C@H](OC)C2)CC(=O)[C@H](C)/C=C(\C)[C@@H](O)[C@@H](OC)C(=O)[C@H](C)C[C@H](C)/C=C/C=C/C=C/1C	?	?
CCOc1ccc(N=Cc2c(O)cc(C)oc2=O)cc1	25%	-4%
COC(=O)C1=NN(C(=O)c2ccc(Cl)cc2)C(O)(c2ccccc2)C1 (stereo not drawn)	-2%	-14%
COc1cccc(C(=O)O/N=C(\N)c2ccncc2)c1	-9%	4%
COC(=O)c1ccc(COC(=O)c2ccccc2OC)cc1	i	2%
COc1ccc2[nH]c(=O)c(CN(Cc3ccco3)C(=O)c3ccccc3)cc2c1	i	-15%
CSc1ncccc1C(=O)OCC(=O)N(C)c1c(N)n(Cc2ccccc2)c(=O)[nH]c1=O	-19%	-6%
Cn1c(SCC(=O)N2CCCCC2)nc2c(c1=O)SCC2	-9%	-12%
CCC(C)C1C(C#N)=C(N)Oc2n[nH]c(-c3ccccc3)c21 (stereo not drawn)	-26%	-28%
CCn1nc(C)c(Oc2ccccc2O)c1C	i	-18%
Cc1ccc(Cn2nnc3c(=O)[nH]c(C4CCN(S(=O)(=O)c5ccc(S(=O)(=O)NC6CC6)cc5)CC4)nc32)cc1	-19%	-7%
Cc1ccc2c(c1)cc(C(=O)N1CCN(c3ccccn3)CC1)n2C	-14%	-10%
Nc1nc(SCC(=O)Nc2ccccc2Oc2ccccc2)n[nH]1	i	-17%
CCCN(Cc1cc2cccc(C)c2[nH]c1=O)C(=O)c1cccc(OC)c1	/	-13%
Cc1ccc(C)c(S(=O)(=O)N2CCCOC2CNC(=O)C(=O)NCCc2ccco2)c1 (stereo not drawn)	-30%	-21%
CCOc1ccc2nc(Cl)c(CN(C(C)=O)C3CCCCC3)cc2c1	i	3%
O=c1[nH]c2ccccc2n1C1CCN(C(CCc2ccccc2)c2nnnn2-c2ccc3c(c2)OCCO3)CC1 (stereo not drawn)	?	?
CN(CC(=O)NCCc1ccc(S(N)(=O)=O)cc1)CC(=O)Nc1ccc(Cl)cc1	i	-7%
Cc1ccc(-c2cc(-c3ccccc3)cc(-c3ccccc3)[n+]2-c2ccccc2)cc1	8.9µM*	10µM*
COc1cccc(-c2nnc(SCCOc3ccc4c(C)cc(=O)oc4c3)o2)c1	-20%	-16%
CCN(CC(=O)Nc1ccc(Cl)c(S(=O)(=O)N(C)C)c1)CC(=O)NC(C)C	i	-12%
O=[N+]([O-])c1ccc(N/N=C2/CCCCC2c2ccccn2)c([N+](=O)[O-])c1 (stereo not drawn)	-3%	-4%
CCOc1ccccc1C(=O)NCC(=O)NC(C)c1ccc(-n2ccnc2)cc1 (stereo not drawn)	i	7%
Cc1c(C(=O)NC(C)c2ccccc2)c(-c2ccccc2)nn1-c1ccccc1 (stereo not drawn)	/	-22%
CCN(c1ccccc1)S(=O)(=O)c1cccc(C(=O)NCc2ccccn2)c1	-27%	-22%
COCCCNC(=O)c1cc(-c2cccnc2)nc2ccc(S(=O)(=O)N3CCC(C)CC3)cc12	-8%	-4%
CCN(CC(=O)Nc1ccccc1OC)C(=O)c1cc(S(=O)(=O)N2CCCCCC2)ccc1OC	-25%	-18%
CC1(C)CN(C2CCCCC2)C(=O)[C@H]1CC(=O)Nc1ccc(Br)cc1	i	-14%
CCOC(=O)C1(Cc2ccc(OC)cc2)CCN(C(=O)c2csc(C)n2)CC1	i	-17%
O=C(Cc1ccccc1)NC(=S)Nc1ccc(OC(F)F)cc1	i	-3%
COCCCNC(=O)C1CCCN(S(C)(=O)=O)C1 (stereo not drawn)	-9%	-8%
CCOc1ccc(OCC)c(NC(=O)C2CCCN(S(=O)(=O)c3c(C)noc3C)C2)c1 (stereo not drawn)	-11%	-4%
Cc1c(C(=O)NCc2ccc(Cl)cc2)sc2nc3n(c(=O)c12)CCC3	-25%	-11%
O=C1Nc2ccccc2-n2nnnc2C1N1CCN(c2ccccn2)CC1 (stereo not drawn)	7%	-1%
Cc1ccccc1C(=O)Nc1nnc(S(=O)(=O)N2c3ccccc3CC2C)s1 (stereo not drawn)	-8%	-8%
CC[n+]1cccc(Br)c1	-12%	-10%
C=CCn1c(CSCc2ccccc2)nnc1SCC(=O)NCc1ccccc1	-6%[1.46 µM]	-15%

# Other results
Compound	VACV mCherry inh	Vaccinia Venus
CC(O)(c1cccc(F)c1)c1nc(-c2csc3ccccc23)cs1 (stereo not drawn)	-15%	-17%
CC(=O)c1ccc(Nc2nc3ccccc3nc2-n2nc(C)cc2C)cc1	?	-29%
Cc1cc(NC(=O)CC2Oc3ccccc3NC2=O)ccc1Br (stereo not drawn)	-16%	-26%
COc1ccc(C(=O)N/N=C/c2cc3ccccc3[nH]c2=O)cc1	-14%	0%
N=c1c(S(=O)(=O)c2ccccc2)cc2c(=O)n3ccccc3nc2n1Cc1ccco1	-10%	-10%
CC(C)c1nnc(SCC(=O)NCc2ccco2)n1C	-6%	-8%
Cc1ccc(NC(=O)CN2C(=O)CC(C)Sc3ccccc32)c(C)c1 (stereo not drawn)	11%	0%
C=CCNC(=S)N/N=C/c1cn(C)c2ccccc12	-25%	?
CCc1ccc(S(=O)(=O)c2nnn3c2nc(Nc2ccc(C)c(Cl)c2)c2sccc23)cc1	-16%	-16%
Cc1ccc(OC(=O)CCC(=O)Oc2ccc(C)cc2C)c(C)c1	i	0%
O=[N+]([O-])c1ccc(-c2cc3ccccc3[nH]2)cc1	6%	-8%
O=c1[nH]c(=S)[nH]c2c1C(c1ccc(F)cc1)OC(C1CCCCC1)C2 (stereo not drawn)	i	-10%
Cc1cccnc1NC(=O)Cn1nc(-c2ccccc2)oc1=S	i	-9%
CCOC(=O)C1C(CC)NC(=S)NC1(C)O (stereo not drawn)	i	-17%
C/C(CC(=O)NCc1ccco1)=N\NC(=O)COc1ccc(C)cc1	-1%	-8%
CN(C)CCC(=O)C(Cc1ccccc1)c1ccccc1 (stereo not drawn)	-15%	?

# Structures above that contain a nitro group on carbon:
Compound	VACV mCherry inh	Vaccinia Venus
COc1ccc(OCCCC(=O)Nc2cccc([N+](=O)[O-])c2C)cc1	-9%	9%
O=[N+]([O-])c1ccc(N/N=C2/CCCCC2c2ccccn2)c([N+](=O)[O-])c1 (stereo not drawn)	-3%	-4%
O=[N+]([O-])c1ccc(-c2cc3ccccc3[nH]2)cc1	6%	-8%

# Following part:
Compound	VACV mCherry inh	Vaccinia Venus
O=C(C(c1ccccc1)c1ccccc1)N1CCN(Cc2ccccn2)CC1	/	-6%
CCCCN(C(=O)CNC(=O)c1cccs1)C(C(=O)NC1CCCCC1)c1cccnc1 (stereo not drawn)	-10%	-6%
Cc1occc1C(=O)Nc1cccc(/C=C/C(=O)O)c1	i	-2%
CC(=O)NC12CC3CC(C1)CC(C(=O)OCC(=O)c1ccc4c(c1)OCCO4)(C3)C2	/	-16%
Oc1ccc(C=NN=C2c3ccccc3-c3ccccc32)c(O)c1	38%[activator]	373%[activator]
COc1ccccc1N1CCN(c2cc(=O)n(Cc3ccc(F)cc3)c(=O)[nH]2)CC1	-8%	-26%
Cc1ccc(CNC(=O)C(CCC(N)=O)NC(=O)OCc2ccccc2)cc1 (stereo not drawn)	i	-3%
O=C1[C@@H](Oc2ccccc2)[C@@H](c2ccccc2)N1c1cccnc1	-23%	-13%
CC(N)Cc1ccc(O)cc1 (stereo not drawn)	i	?
CCN(CC)c1ccc(NC(=O)Cn2c(C)c3cnn(-c4ccccc4)c(=O)c3c2C)c(C)c1	-16%	-14%
O=C(NCCOC(=O)c1ccc(S(=O)(=O)N2CCOCC2)cc1)c1cccnc1	-6%	1%
COc1ccc(/C=C/c2nc(C#N)c(NCCN(C)C)o2)cc1OC	-2%	-11%
O=C(Nc1ccccc1[N+](=O)[O-])C1C(c2ccccc2)=C1c1ccccc1	-13%	-8%
Cc1[nH]n(-c2ccccc2)c(=O)c1/C=N/N1C(=O)c2cccc3cccc(c23)C1=O	-11%	-8%
Cc1cccn2c(=O)c3cc(C(=O)N(Cc4ccccc4)C(C)C)sc3nc12	-6%	-7%
CCC(C)NC(=O)c1ccc2nc(-c3cccs3)c(-c3cccs3)nc2c1 (stereo not drawn)	-17%	-12%
CN(C)c1ccc([N+](=O)[O-])c([N+](=O)[O-])c1	i	1%
CCCCCCCCCCCCCC(=O)Nc1ccc(/C=C/c2ccnc3ccccc23)cc1	-13%	-10%
CCOC(=O)Cc1csc(NC(=O)CCS(=O)(=O)Cc2ccccc2)n1	-15%	-20%
